HEK293 tox: cytotoxicity counter-screen for GLP-1 receptor inverse agonists. 0.13% of 410,000 active. AID 624418. Potency, µM (top dose mostly 38.3 µM), for the others: at the highest dose activity change, negative = inhibition, actives largely listed as inhibitors. HEK293 cAMP-luciferase reporter cells, luminescence, 24 h;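 also: loss of luciferase light is scored as toxicity; potency is read from the fitted curve at half-maximal effect; % is scaled to controls: 0 for no effect and ±100 for the full control effect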
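Step one: seed cells (200 cells/uL, DMEM with 10% Nu serum, 1% pen-strep). Step two: 12-hour incubation at 37 deg C. Step three: pin 23 nL compound, incubate 24 hr. Step four: add luciferase reagent, read luminescence 12 min later.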
WRN inhibitor: WRN helicase (human) inhibition; Potency, µM (doses to about 114 µM), for inactives: at the top dose activity change, negative = inhibition, actives largely listed as inhibitors; WRN helicase unwinding, fluorescent forked duplex, kinetic; Q14191; AID 651768; 0.46% of 360,000 active; also: potency is read from the fitted curve at half-maximal effect; % is scaled to controls: 0 for no effect and ±100 for the full control effect; nearly all actives have a fitted effect of over 55% in size
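Fluorescence dequenching readout, ex 525 nm/em 598 nm, kinetic mode: forked duplex DNA (100 nM final) with adjacent fluorophore and quencher unwound by WRN (20 nM final) with 2 mM ATP. Compound preincubation 15 min, room temperature.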
GLP1R ag: GLP-1 receptor (human) agonism; P43220; HEK293 GLP-1R CRE-luciferase, luminescence, 4-6 h; cells express a hypersensitive GLP-1R form; Potency, µM (doses to about 45.6 µM), without a hit: at the top dose activation, actives largely listed as activators; 0.007% of 380,000 active; AID 624172; also: potency is read from the fitted curve at half-maximal effect; % of control where 0% means no effect
GLP1R inv ag: inverse agonists of human GLP-1 receptor; 1.6% of 410,000 active; P43220; AID 624417; Potency, µM (doses to about 38.3 µM), for inactives: top-dose activity change, negative = inhibition, hits mostly inhibitors; HEK293 GLP-1R CRE-luciferase, luminescence, 24 h; GLP-1R form is constitutively active; also: potency is read from the fitted curve at half-maximal effect; % is scaled to controls: 0 for no effect and ±100 for the full control effect; nearly all actives have a fitted effect of over 55% in size
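HEK293 cells stably co-expressing constitutively active GLP-1R and a cAMP-responsive luciferase reporter were seeded in DMEM with 10% Nu serum, given compounds after 12 h, and incubated 24 h at 37 deg C. Luminescence was then read.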
PLK1 PBD inh: blocks phosphopeptide binding to human PLK1 polo-box domain; P53350; Plk1 PBD binding of FITC phosphopeptide, fluorescence polarization; Potency, µM, inactives show max response, negative = inhibition, usual class: inhibitors; 2.8% of 360,000 active; also: potency is read from the fitted curve at half-maximal effect; series mostly up to about 57 µM; % is scaled to controls: 0 for no effect and ±100 for the full control effect; nearly all actives have a fitted effect of over 65% in size
Target sequence (P53350 whole entry, looked up, the tested form may be a part): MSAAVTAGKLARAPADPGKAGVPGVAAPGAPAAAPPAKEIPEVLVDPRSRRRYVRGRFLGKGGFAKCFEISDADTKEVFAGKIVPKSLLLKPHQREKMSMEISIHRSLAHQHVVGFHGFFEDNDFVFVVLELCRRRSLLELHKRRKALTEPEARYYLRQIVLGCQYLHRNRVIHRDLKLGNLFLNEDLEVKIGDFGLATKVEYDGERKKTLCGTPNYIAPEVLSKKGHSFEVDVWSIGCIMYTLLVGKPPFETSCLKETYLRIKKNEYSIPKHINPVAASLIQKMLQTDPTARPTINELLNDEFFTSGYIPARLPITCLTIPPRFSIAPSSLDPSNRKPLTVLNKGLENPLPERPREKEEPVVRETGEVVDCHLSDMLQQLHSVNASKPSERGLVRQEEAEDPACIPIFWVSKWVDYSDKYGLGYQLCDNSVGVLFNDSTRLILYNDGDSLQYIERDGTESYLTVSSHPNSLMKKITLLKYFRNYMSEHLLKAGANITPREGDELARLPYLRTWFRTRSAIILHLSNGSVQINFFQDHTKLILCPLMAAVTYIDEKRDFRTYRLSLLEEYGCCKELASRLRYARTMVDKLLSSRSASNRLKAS
IL2 activator: IL-2 activation. AID 652025. IL-2 activation reporter assay, cell-based qHTS; stimulated with anti-CD3/CD4/CD28 beads; in transgenic mouse T cells. 0.065% of 360,000 active. activation, % (series mostly up to about 46 µM); in the data active = activation above about 50%; inconclusive = mostly about 30% to 49%; also: 0% is about no effect
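First, unstimulated transgenic mouse T cells were exposed to compound for 60 min. Next, anti-CD3/anti-CD4-coated beads with anti-CD28 were added. Finally, after 18 h at 37 degrees C, EGFP and DsRed were imaged.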
D3 ag: activates the human D3 dopamine receptor; 0.58% of 410,000 active; max activation, %; D3R DiscoveRx beta-arrestin cells, luminescence, 90 min; AID 652048; in the data active = max activation above about 30%; also: 0% is about no effect; mostly tested at two doses, the higher about 12 µM
Target sequence (P35462 whole entry, looked up): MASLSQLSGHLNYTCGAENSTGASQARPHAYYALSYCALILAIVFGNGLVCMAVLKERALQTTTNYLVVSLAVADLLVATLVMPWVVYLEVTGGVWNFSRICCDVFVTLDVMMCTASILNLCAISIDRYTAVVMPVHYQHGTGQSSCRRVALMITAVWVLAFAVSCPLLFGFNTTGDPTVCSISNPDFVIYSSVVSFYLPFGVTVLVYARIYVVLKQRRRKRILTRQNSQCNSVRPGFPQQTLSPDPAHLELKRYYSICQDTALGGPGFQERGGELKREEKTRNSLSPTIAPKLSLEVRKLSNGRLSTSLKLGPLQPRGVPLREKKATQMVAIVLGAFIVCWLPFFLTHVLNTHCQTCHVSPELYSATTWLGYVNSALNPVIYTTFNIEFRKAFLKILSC
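Agonist mode: compounds and dopamine controls were applied to plated cells for 90 min at 37 degrees C after an overnight attachment at 1500 cells/well. Luminescent read-out followed 30 - 60 minutes at room temperature with DiscoveRx detection reagent.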
D3 antag: D3 dopamine receptor (human) antagonism; P35462; D3R cells, DiscoveRx beta-arrestin luminescence, antagonist mode; hits give low values; max response, negative = inhibition, %; 2.5% of 360,000 active; AID 652054; in the data active = max response below about -50%; inconclusive = no clear call, values can overlap the other calls; also: % is scaled to controls: 0 for no effect and ±100 for the full control effect; mostly tested at two doses, the higher about 12 µM
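Cells plated overnight at 1500 cells/well, then exposed to library compounds with dopamine controls for 90 minutes at 37 degrees C. DiscoveRx reagent added for 30–60 minutes at room temperature; luminescence read, quantitative HTS format.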
* hit, by the source's call; ? = inconclusive; & = joins results of further samples; [ ] = remark or other dose. Unless noted, calls follow the shape of the dose curve; as a rule, active = well fitted curve in the direction sought with a large enough effect; inconclusive = small, poorly fitted or top-dose-only effect, or another doubt; inactive = no such curve, though single readings can be large; an effect the other way counts as inactive or inconclusive. Some of the compounds tested; count on the stated rates, not on these rows.

SMILES	HEK293 tox	WRN inhibitor	GLP1R ag	GLP1R inv ag	PLK1 PBD inh	IL2 activator	D3 ag	D3 antag
COC(=O)CCc1sc(Nc2ccccc2)nc1-c1ccc(OC)cc1	5%	2%	8%	?	-15%	-0.2	-8	-24
Cc1ccc(O)c(NC(=O)c2noc3c2CCCCC3)c1	-12%&-12%	-7%	6%	?	-12%	1.9	4&8	11
C=CCN1C(=O)c2ccc(C(=O)N3CCN(c4ccccc4OC)CC3)cc2C1=O	2%	22%	1%	2%	-4%	-2.7	-2	3
CC1(C)C(=O)Nc2ccccc2N1C(=O)CN1C(=O)c2ccccc2C1=O	-2%	1%	7%	1%	-10%	-1.5	-8	18
Cn1c(C(=O)NCC2CCCO2)cc2c(=O)n3ccccc3nc21 (centres undefined)	96%[activator]	4%	-6%	31%[activator]	-2%	-2.4	-1	35
CC1CCN(CC(=O)Nc2ccc3c(c2)OCO3)CC1	-2%	-1%	13%	1%	7%	1.3	-15	-18
Cc1nn(Cc2ccccc2)c2sc(C(=O)NCc3cccnc3)cc12	-9%	4%	11%	20%	-2%	-4.4	-2	?
C=CCn1c(SCC(=O)NCC2CCCO2)nc2scc(-c3ccccc3)c2c1=O (centres undefined)	-3%	4%	5%	8%	4%	-3.9	6	18
CCC(=O)Nc1cc(-c2cc3ccccc3oc2=O)ccc1OC	2%	-4%	6%	17%	-14%	-0.1	-7	-6
Cc1ccc(C(=O)N[C@H](C(=O)OCc2cc(=O)n3c(n2)sc2ccccc23)C(C)C)cc1	12%	-14%	5%	3%	-7%	-0.5	1	22
O=c1oc2ccccc2cc1-c1csc(Cc2nc(-c3ccc(Cl)cc3)cs2)n1	2%	6%	-13%	6%	-5%	-2.7	8	29
O=C(O)c1cccc(NS(=O)(=O)c2ccc(Cl)c(C(=O)Nc3cccc([N+](=O)[O-])c3)c2)c1	15%	-35%	-3%	6%	-1%	6.8	-9	-19
CCOC(=O)c1ccc(NC(=O)CSc2nc(C)cc(=O)[nH]2)cc1	8%	?	-13%	5%	?	-2.0	-1	-18
O=C(CCCn1c(=O)[nH]c2cc(Cl)ccc2c1=O)NCCCN1CCN(c2ccc(F)cc2)CC1	-24%	4%	-3%	-17%	-2%	-0.3	-15	-21
O=C(Nc1nc(-c2ccccn2)cs1)c1ccc([N+](=O)[O-])o1	-21%	?	-5%	-17%	13µM*	-3.1	-19	-21
CC(NC(=O)c1noc2c1CCCC2)c1ccccc1 (centres undefined)	1%	-4%	0%	-11%	-3%	0.2	-8	0
COc1ccc(C(=O)Nc2ccc(C(=O)Nc3cccnc3)cc2)cc1	17%	0%	0%	8%	11%	3.1	-7	-2
Cc1ccc(-c2nn3cnnc3c3ccccc23)cc1C	-5%	2%	?	97%[activator]	-12%	1.0	5	7
COc1ccc(CC2(CO)CCN(Cc3cnn(C)c3)CC2)cc1	16%	-1%	2%	-10%	-10%	-0.5	-2	4
COCCn1c(=O)[nH]c2cc(C(=O)NCCN3CCN(c4ccccc4)CC3)ccc2c1=O	20%	3%	-1%	3%	-9%	0.3	8	?
Cc1ccc(Cl)cc1NC(=O)CSc1sc2c(O)cc(=O)[nH]c2c1C#N	-4%	-10%[11.6 µM]	0%	8%	?	1.6	2	3
Cc1nnc(SCC(=O)Nc2sccc2C#N)s1	1%	?	-2%	21%	-27%	-3.5	-3	-4
CC(Oc1ccc(F)cc1)C(=O)Nc1nc(-c2ccccn2)cs1 (centres undefined)	?	-3%	10%	10µM*	-11%	-1.4	-12	-69*
O=C(NNC(=O)c1cc(F)c(F)cc1Cl)c1ccc(NS(=O)(=O)c2cccs2)cc1	-24%	10%	-7%	5%	-6%	-0.2	-6	-15
O=C(Nc1cccnc1)c1sc(Nc2ccccc2F)nc1-c1ccccc1	-4%	-1%	4%	10%	0%	-0.4	-3	9
Next section:
SMILES	HEK293 tox	WRN inhibitor	GLP1R ag	GLP1R inv ag	PLK1 PBD inh	IL2 activator	D3 ag	D3 antag
Cc1cc(C)cc(OCC(=O)Nc2nc(-c3ccccn3)cs2)c1	-17%	-11%	8%	-25%	?	0.8	14	9
O=C(CCc1ccccc1)Nc1ncc([N+](=O)[O-])s1	?	-3%	0%	?	?	-1.0	-3	4
CCOc1ccccc1NC(=O)Cc1cccs1	5%	?	0%	15%	?	-4.8	49*	-12
CCOC(=O)CN1C(=O)N(c2ccccc2OC)S(=O)(=O)c2ccccc21	-3%	2%[57.1 µM]	-2%	-11%	-10%	-2.7	-1	2
COc1ccc(C2/C(=C(\O)c3cc(C)ccc3C)C(=O)C(=O)N2CCN(C)C)cc1OC (centres undefined)	-5%	-14%[57.1 µM]	0%	8%	2%	-1.9	1	-8
CCCn1c(SC(C)C(=O)NCC2CCCO2)nc2sc(CC)cc2c1=O (centres undefined)	-3%	-6%	1%	-19%	-6%	-3.7	3	18
COc1ccc(-c2ccc3c(=O)cc(-c4ccsc4)oc3c2)cn1	7%	50µM*	4%	-8%	23%	-2.5	-8	-6
COc1ccc(S(N)(=O)=O)cc1C(=O)OCC(=O)N1c2ccccc2NC(=O)C1(C)C	-2%	-10%	2%	8%	-4%	2.5	2	13
N#Cc1c(NC(=O)CSc2nc3ccccc3c(=O)n2Cc2ccco2)sc2c1CCCC2	-6%	-6%	4%	0%	-8%	0.9	-2	-17
COc1ccc(CC2(CO)CCN(CC3=Cc4cc(Cl)ccc4OC3)CC2)cc1	?	-5%	16%	2.8µM*	0%	-0.6	-13	-75*
CCOC(=O)c1sc2c(c1C)c(=O)n(Cc1ccccc1)c(=O)n2CCN(C)C	0%	-3%	3%	-26%	-5%	-1.3	-2	0
COc1ccc2oc(C(=O)OCC(=O)Nc3ccccc3)c(C)c2c1	4%	-35%	-1%	3%	-6%	-3.4	2	12
Cc1noc(C)c1CSCC(=O)Nc1nc2c(F)cc(F)cc2s1	-7%	?	6%	23%	?	1.1	8	25
COc1ccc(CCN2C(=O)c3[nH]nc(-c4ccccc4O)c3C2c2ccc(C)cc2)cc1OC (centres undefined)	?	-11%	-2%	?	5%	-0.2	-2	12
Cn1c(SCC(=O)Nc2sccc2C#N)nnc1-c1ccccc1	79%[activator]	?	8%	4%	-3%	-0.7	5	3
CN(CC1CCCO1)S(=O)(=O)c1ccc(C(=O)Nc2nc3cc4c(cc3s2)OCO4)cc1 (centres undefined)	1%	-6%	-4%	-22%	3%	-3.1	2	3
O=C(COc1ccccc1)Nc1nc(-c2cccnc2)cs1	-16%	-1%	-5%	15%	-18%	0.4	13	26
Nc1ccc(C(=O)Nc2ccc3cc(S(=O)(=O)O)ccc3c2)cc1	-10%	-27%	7%	1%	-13%	-0.1	3	7
N#Cc1c(SCC(=O)Nc2cccc(F)c2)sc2c(O)cc(=O)[nH]c12	5%	?	0%	15%	?	-0.9	-6	-7
Cc1cccc(C(=O)N[C@H](C(=O)OCc2cc(=O)n3c(n2)sc2ccccc23)C(C)C)c1	7%	?	2%	13%	?	-0.7	6	8
N#Cc1ccc(-c2cccnc2)nc1SCc1ccc(Cl)c(Cl)c1	11%	-2%	3%	5%	-3%	1.2	-2	?
CCCCCCSc1nsc(NC(=O)CCC)n1	-1%	-4%	6%	?	-18%	0.3	2	-3
CCCNC(=O)COC(=O)c1c2c(nc3ccccc13)CCC2	1%	-28%	14%	9%	-25%	0.5	-5	0
Cc1ccccc1NC(=O)c1c2c(nc3ccccc13)CCC2	-2%[7.66 µM]	-20%	6%	-9%[7.66 µM]	-13%	-0.2	5	3
O=C(Cc1cccs1)N(c1ccc(Br)cc1)C1C=CS(=O)(=O)C1 (centres undefined)	0%	-10%	7%	-5%	?	-2.9	5	3
Cc1nn(C)cc1S(=O)(=O)NCc1ccc2c(c1)OCO2	-1%	-6%	3%	17%	5%	-2.0	-1	-2
O=C(Nc1nccs1)C1CC(=O)N(c2ccc(F)cc2)C1 (centres undefined)	-8%	9%[57.1 µM]	0%	8%	7%	0.8	-16	10
COc1ccccc1-c1n[nH]c(=S)o1	3%	-7%	-11%	11%	-22%	0.0	-11	-82*
O=C(COc1ccc(-c2nnco2)cc1)Nc1cc([N+](=O)[O-])ccc1F	3%	?	2%	55%[activator]	-11%	-0.6	-14	-9

Four records picked at random from the list so far, as already listed:
SMILES	HEK293 tox	WRN inhibitor	GLP1R ag	GLP1R inv ag	PLK1 PBD inh	IL2 activator	D3 ag	D3 antag
Cc1cccc(C(=O)N[C@H](C(=O)OCc2cc(=O)n3c(n2)sc2ccccc23)C(C)C)c1	7%	?	2%	13%	?	-0.7	6	8
COc1ccccc1-c1n[nH]c(=S)o1	3%	-7%	-11%	11%	-22%	0.0	-11	-82*
CCOC(=O)c1sc2c(c1C)c(=O)n(Cc1ccccc1)c(=O)n2CCN(C)C	0%	-3%	3%	-26%	-5%	-1.3	-2	0
COc1ccc(C2/C(=C(\O)c3cc(C)ccc3C)C(=O)C(=O)N2CCN(C)C)cc1OC (centres undefined)	-5%	-14%[57.1 µM]	0%	8%	2%	-1.9	1	-8

Entries of single compounds, quoted from the list. Order of values: HEK293 tox, WRN inhibitor, GLP1R ag, GLP1R inv ag, PLK1 PBD inh, IL2 activator, D3 ag, D3 antag
O=C(COc1ccccc1)Nc1nc(-c2cccnc2)cs1 as listed: -16%, -1%, -5%, 15%, -18%, 0.4, 13, 26
CCCCCCSc1nsc(NC(=O)CCC)n1 as listed: -1%, -4%, 6%, ?, -18%, 0.3, 2, -3
CC1CCN(CC(=O)Nc2ccc3c(c2)OCO3)CC1 as listed: -2%, -1%, 13%, 1%, 7%, 1.3, -15, -18

Screening data deposited in PubChem BioAssay by National Center for Advancing Translational Sciences (NCATS).
